# Beta apoptosis: beta cell apoptosis inhibition. INS-1E cytokine-induced death, ATP luminescence, 48 h; percent of positive-control rescue, neutral wells zero. protection from apoptosis, % (test concentration not listed). actives 0.8% (n = 300,000). AID 435005;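 active = all replicates at 75% or more, or half of them and the mean; inconclusive = half reach 75% but not the mean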;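 note: 0% = cytokine-treated negative control wells and 100% = positive control rescue; higher means more ATP so stronger rescue from cytokine killing; wells of about 40 µL received 100 nL stock; the first replicate is given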
# Ecoli rRNA inh: inhibits bacterial ribosomal RNA function over humanized ribosomes | GFP signal change (wild-type ribosome), % (test concentration not listed) | AID 720706 | E. coli WT GFP vs humanized-ribosome RFP mutants, fluorescence, 24 h; active compounds read low; DMSO median 0, no signal -100 | actives 1.6% (n = 350,000);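 active = significant combined selectivity score with lowered wild-type GFP, culture density cut under 30%, mutant RFP and density less affected; inactive = any of these conditions unmet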; note: one replicate is shown; some compounds called inactive have numbers as strong as hits
# Ecoli growth: blocks Escherichia coli growth. OD600, 23 h; active compounds read low. OD600 absorbance (test concentration not listed). actives 0.21% (n = 330,000);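 active = OD600 absorbance below the run mean of sample wells minus 3.6 SD, in any replicate, cut at about 0.56 in these data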;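 note: stock transfer was 300 nL into about 60 µL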
# UCH37 DUB inh: blocks the human deubiquitinase UCH37 | purified proteasome/UCH37, Ub-AMC cleavage fluorescence | inhibition, % (no concentration beside the values) | AID 588478 | actives 0.33% (n = 330,000) | Q9Y5K5;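 active = mean of two replicates above 20%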;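 note: 0% = compound-free wells with enzyme and 100% = wells lacking proteasome; stock transfer was 100 nL into about 20 µL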
# Target sequence (Q9Y5K5 whole entry, looked up): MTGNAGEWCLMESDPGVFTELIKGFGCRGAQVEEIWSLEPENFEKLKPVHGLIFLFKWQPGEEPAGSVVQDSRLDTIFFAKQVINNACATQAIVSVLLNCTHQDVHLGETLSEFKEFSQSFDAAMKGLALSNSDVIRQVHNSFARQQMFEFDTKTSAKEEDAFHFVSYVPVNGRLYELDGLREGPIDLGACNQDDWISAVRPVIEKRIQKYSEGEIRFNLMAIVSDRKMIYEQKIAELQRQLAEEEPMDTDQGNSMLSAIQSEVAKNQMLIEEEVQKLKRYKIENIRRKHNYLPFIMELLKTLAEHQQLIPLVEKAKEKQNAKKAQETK
#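 Signal – fluorescence, ex 355 nm, em 460 nm · System – Proteasome-bound UCH37 · Input – 0.15 nM proteasome as dispensed · Timing – 30 min preincubation with enzyme, 25 min cleavage at room temperature · Read-out basis – percent inhibition of cleavage signal versus uninhibited and no-proteasome wells · Medium – Tris-HCl pH 7.4 with ATP-MgCl2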
# Bfl-1 A1 inh: inhibitors of the anti-apoptotic protein A1, read as caspase activation; actives 0.066% (n = 330,000); AID 2462; MEF A1-2A-BIM cells, Caspase-Glo 3/7 luminescence, 3 h; percent of clofoctol response, vehicle zero; caspase activation, % (test concentration not listed);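 active = over half of replicate activation scores above 10%, or exactly half above 10 with the replicate mean above 10; inconclusive = replicate mean below 10 yet half the replicates above 10; inactive = over half of replicates below 10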;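 note: wells of about 30 µL received 50 nL stock; many hits fall short of the cut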
# FGF22 binding: shifts melting point of recombinant human FGF22; calls only at 9.99 µM; recombinant FGF22 thermal shift, SYPRO orange fluorescence; percent of sucrose octasulfate shift, DMSO zero; actives 1.5% (n = 340,000); Q9HCT0;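 active = melting point raised past a set limit in the mean and every replicate; inconclusive = no clear call; three in four hits are not shown here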
# Target sequence (Q9HCT0 whole entry, looked up): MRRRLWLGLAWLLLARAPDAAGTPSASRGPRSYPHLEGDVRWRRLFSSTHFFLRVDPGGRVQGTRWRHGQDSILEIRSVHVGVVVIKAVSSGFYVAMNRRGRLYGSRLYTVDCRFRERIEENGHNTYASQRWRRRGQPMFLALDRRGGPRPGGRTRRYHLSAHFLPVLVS
# T cruzi inh: blocks replication of Trypanosoma cruzi | inhibition, % (test concentration not listed) | T. cruzi beta-gal in NIH3T3, luminescence, 90 h | AID 1885 | actives 1.4% (n = 300,000);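 active = mean inhibition across valid replicates above about 55%, limit read from the data; inconclusive = mean below that limit but half or more replicates reach it; inactive = mean below it, under half of replicates reach it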;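 note: signal also drops with host cell toxicity which is not excluded here; 0% = plate median of DMSO wells and 100% = zero luminescence signal; higher percent means less beta-gal luminescence so fewer parasites; stock transfer was 50 nL into about 50 µL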
# AF4-AF9 inh: blocks AF4 peptide binding to human AF9 | inhibition, % at 10 µM | actives 0.47% (n = 350,000) | AlphaScreen, biotin-AF4 peptide binding to FLAG-AF9;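 active = every replicate reaching a set inhibition limit, whatever the replicate mean, cut at about 25% in these data; inconclusive = mean inhibition reaches that limit but some replicates miss it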;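 note: 0% = plate neutral control median and 100% = total signal loss; the record names both 10 and 1 µM as test concentration; the first replicate is given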
# Target sequence (P42568 whole entry, looked up): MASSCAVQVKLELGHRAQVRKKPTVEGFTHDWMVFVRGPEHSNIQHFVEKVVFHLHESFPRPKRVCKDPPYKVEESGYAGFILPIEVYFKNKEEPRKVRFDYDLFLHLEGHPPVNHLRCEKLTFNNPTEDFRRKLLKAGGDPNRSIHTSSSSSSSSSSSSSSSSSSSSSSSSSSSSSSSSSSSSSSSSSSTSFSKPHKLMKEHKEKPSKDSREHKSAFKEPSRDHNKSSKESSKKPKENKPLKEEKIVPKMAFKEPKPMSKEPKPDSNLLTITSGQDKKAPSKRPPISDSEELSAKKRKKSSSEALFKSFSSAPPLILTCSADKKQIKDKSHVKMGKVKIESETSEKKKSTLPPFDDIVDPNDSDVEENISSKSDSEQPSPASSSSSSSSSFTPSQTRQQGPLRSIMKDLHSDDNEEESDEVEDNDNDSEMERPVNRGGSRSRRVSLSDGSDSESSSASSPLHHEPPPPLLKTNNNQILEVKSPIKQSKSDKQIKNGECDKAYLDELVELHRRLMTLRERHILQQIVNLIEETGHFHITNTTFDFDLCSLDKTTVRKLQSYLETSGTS
# Ecoli rRNA inh OD600: second read-out of Ecoli rRNA inh, no call of its own (marks repeat the call); OD600 change, %; measured here: OD600 growth;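 optical density of the mix in the first replicate; 0 = DMSO median and -100 = no signal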
# Ecoli rRNA inh RFP: also measured in Ecoli rRNA inh; calls as there; RFP signal change, %; measured here: RFP humanized mutant strains;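 first replicate; 0 = DMSO median and -100 = no signal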
# An asterisk follows results filed as active; i = inactive; ? = inconclusive; . = no result given; + = active, no number; & = joins results of further samples. Some of the compounds tested. The share of hits here may be higher or lower than overall.
SMILES,Beta apoptosis,Ecoli rRNA inh,Ecoli rRNA inh OD600,Ecoli rRNA inh RFP,Ecoli growth,UCH37 DUB inh,Bfl-1 A1 inh,FGF22 binding,T cruzi inh,AF4-AF9 inh
COc1ccc(C(=O)CC(c2ccccc2)C2CCCCC2=O)cc1 (centres undefined),-8,-4,-18,1.4,0.68,4.4,-0.8,i,9,-64
Cc1cc(CC(=O)O)c(C)cc1CC(=O)O,3,.,.,.,0.71,0.9,0.6,.,.,.
COc1ccc(-n2nc3cc(C)c(N)cc3n2)cc1Cl,.,-2,3,-2.0,0.71,-147,-0.6,i,17,1.2
O=c1[nH]c(Nc2ccccc2Cl)cc2ccccc12,3,1,-6,-2.0,0.67,-15,-0.7,i,-1,-3.0
O=C(Nc1ccccc1F)c1cc(S(=O)(=O)N2CCOCC2)ccc1N1CCOCC1,.,4,-1,-1.0,0.72,3.0,.,i,.,1.1
COc1cc(C(=O)OCC(=O)c2ccccc2)cc2c1OCCO2,2,-18,-20,-4.3,0.68,0.4,-0.3,i,.,-1.3
CCN(CC(=O)Nc1ccc(NC(C)=O)cc1)C(=O)c1cccc(-n2cccc2)c1,2,.,.,.,0.61,0.8,0.0,.,-9,.
COc1cc(C(=O)OCC(=O)NC2CCCC2)cc(NC(=O)c2ccco2)c1OC,.,.,.,.,0.67,-75,0.7,.,-28,.
CCc1ccccc1NC(=O)CN(C)C(=O)CSc1nnc(Nc2cccc(C)c2C)s1,2,.,.,.,0.68,0.9,0.5,.,-1,.
CCOC(=O)C1(C(F)(F)F)N=C(N(C)C)OC(N(C)C)=N1,-1,.,.,.,0.75,2.8,-0.6,.,-11,.
Cc1noc(C)c1NC(=O)NC(c1ccccc1)c1ccccc1,-4,0,12,0.5,0.69,5.8,1.0,i,-7,-12
C=CCNC(=S)NCc1ccccc1,2,-1,5,-11,0.71,6.7,-0.8,i,-11,4.3

# The last 4 compounds of the part before come first, to join the parts.
SMILES,Beta apoptosis,Ecoli rRNA inh,Ecoli rRNA inh OD600,Ecoli rRNA inh RFP,Ecoli growth,UCH37 DUB inh,Bfl-1 A1 inh,FGF22 binding,T cruzi inh,AF4-AF9 inh
CCc1ccccc1NC(=O)CN(C)C(=O)CSc1nnc(Nc2cccc(C)c2C)s1,2,.,.,.,0.68,0.9,0.5,.,-1,.
CCOC(=O)C1(C(F)(F)F)N=C(N(C)C)OC(N(C)C)=N1,-1,.,.,.,0.75,2.8,-0.6,.,-11,.
Cc1noc(C)c1NC(=O)NC(c1ccccc1)c1ccccc1,-4,0,12,0.5,0.69,5.8,1.0,i,-7,-12
C=CCNC(=S)NCc1ccccc1,2,-1,5,-11,0.71,6.7,-0.8,i,-11,4.3
Cc1cnc(NC(=O)CSc2nnc(Cc3ccccc3)n2C)s1,-9,.,.,.,0.69,5.8,0.6,.,11,.
COc1ccc(Cc2nnc(CCc3ccccc3)s2)cc1,-7,-9,-14,0.5,0.69,3.0,-1.7,i,1,-4.4
Cc1ccc(-c2noc(-c3cccs3)n2)cc1,0,-8,5,-4.3,0.67,0.6,-8.3,i,-5,0.9
CCOc1cc(NC(=S)NCC2CCCO2)c(OCC)cc1NC(=O)c1ccccc1F (centres undefined),7,-1,0,0.8,0.71,0.7,0.9,i,14,24
COC(=O)C1CCN(Cc2cc(=O)oc3cc(OC)ccc23)CC1,-20,.,.,.,0.72,-3.7,1.0,.,-18,.
CCOC(=O)N1CCN(c2nc(-c3ccccc3)c3ccccc3n2)CC1,-2,.,.,.,0.72,-85,0.3,.,25,.
O=C(O)Cn1cc(/C=C2/NC(=O)N(c3ccc(Cl)cc3)C2=O)c2ccccc21,-2,-1,-4,0.8,0.73,0.1,0.6,+,-2,13
O=C(CN1N=C(c2ccccc2)CCC1=O)NCCCN1CCc2ccccc2C1,-2,.,.,.,0.68,0.4,-0.3,.,-21,.
Cc1cccc(NS(=O)(=O)Cc2ccccc2)n1,-4,.,.,.,0.76,-55,1.2,.,-9,.
CCN1CCN(CCn2c(=S)[nH]c3ccccc3c2=O)CC1,-4,.,.,.,0.69,0.8,-0.7,.,-5,.
C#Cc1ccc([C@H]2C=C(C(=O)N3CCN(Cc4ccccc4)CC3)O[C@@H](OCC)[C@@H]2CCCO)cc1,1,-32,-68,3.4,.,1.8,-0.1,i,34,0.5&4.2
Cc1cccc(NC(=O)C2COc3ccccc3O2)c1 (centres undefined),-1,12,-1,-5.8,0.67,-1.4,-1.8,i,-10,-0.8
CC(=O)N1CCN(c2ccc(NC(=O)c3ccco3)cc2Cl)CC1,-1,1,5,-3.3,0.65,0.8,-0.1,i,3,0.7
COc1ccc(CNS(=O)(=O)c2cc(-c3cc(C)no3)ccc2OC)cc1OC,-9,3,2,2.0,0.68,-1.9,?,i,-16,-1.2
COc1ccccc1CC1CC(=O)N(c2cccc(Cl)c2C)C1=O (centres undefined),-2,18,16,3.8,0.67,0.1,-0.3,i,-8,0.3
COc1ccc(CC(=O)OCC(=O)Nc2ccc(C(=O)Nc3ccc(OC)cc3)cc2)cc1,0,1,7,1.1,0.69,-0.1,0.2,i,9,0.5
Cc1ccc(S(=O)(=O)Nc2nc3ccccc3nc2NCC2CCCO2)c(C)c1 (centres undefined),2,-13,-3,9.1,0.69,-118,-0.2,i,-5,3.9
CCCSc1nc2c(cnn2-c2ccc(C)cc2)c(=O)[nH]1,1,2,7,-2.2,0.8,7.7,?,i,12,-5.8
Cc1cccc(NC(=O)CSCC(=O)N2CCN(c3cccc(C(F)(F)F)c3)CC2)c1,0,-17,-58,5.9,0.68,0.2,1.0,i,.,2.3
CCOC(=O)c1[nH]c2cc3c(cc2c1CCCN1C(=O)c2ccccc2C1=O)OCCO3,-2,.,.,.,0.72,-2.3,-0.3,.,5,.
O=C(CC1SC2=NCCN2C1=O)Nc1ccc(Cl)cc1 (centres undefined),-1,.,.,.,0.65,1.5,0.0,.,9,.
CCN(C(=O)c1ccc2c(Cl)c3c(nc2c1)CCC3)c1ccc(C)c(C)c1,11,2,-23,19,0.74,1.5,.,i,28,5.2
Cc1cc(C)c(NC(=O)CNC(=O)c2cc([N+](=O)[O-])ccc2N2CCOCC2)c(C)c1,3,0,5,-1.5,0.7,12,2.6,i,-11,-1.6
N#CCCN(C(=O)COc1ccc(Cl)cc1Cl)c1ccccc1,6,1,0,-4.1,0.62,3.0,1.6,i,-5,-9.2
Clc1ccc(CCNc2ncnc3nc[nH]c23)cc1,11,-2,-5,-3.6,0.68,5.0,-1.2,i,.,0.8&-6.3
O=C1N=C(N2CCc3ccccc3C2)S/C1=C\c1ccc(O)cc1,2,-10,3,7.0,0.68,4.2,-0.4,i,5,7.6
Nc1sc(-c2ccccc2)c(Cc2ccccc2)c1C(=O)O,1,3,-2,4.8,0.67,1.9,0.6,i,4,1.0
CC(=O)Nc1cccc(NC(=O)Cc2nc(-c3ccccc3)sc2-c2ccc(C)cc2)c1,2,11,-11,1.8,0.72,-1.8,0.7,i,42,2.8
Cc1c(NC(=O)CSc2nc3ccccc3n2C)c(=O)n(-c2ccccc2)n1C,-1,.,.,.,0.72,0.5,1.2,.,-8,.
CC1=CC(C)(C)N2C(=O)C3(C(C#N)=C(N)OC4=C3C(=O)CC(C)(C)C4)c3c(C)c(C)cc1c32 (centres undefined),5,-5,-5,-0.1,0.7,4.8,0.7,i,20,-2.2
O=C(c1cc(Br)c(Br)s1)N1CCc2ccccc2C1,-2,-23,-49,4.5,0.7,-2.6,-3.9,i,.,0.1
CCn1nc(C(=O)NNC(=O)c2ccccc2)c2ccccc2c1=O,3,12,15,2.8,0.67,1.7,-0.2,i,.,-0.3
O=[N+]([O-])c1ccc(N=Cc2c(O)ccc3ccccc23)cc1,-8,7,11,-9.4,0.73,3.8,-0.5,i,-2,-3.1
CC(C)OC(=O)c1ccc(N2C(=O)C3CC=CCC3C2=O)cc1 (centres undefined),6,.,.,.,0.72,3.1,0.8,.,-5,.
CC1CC2(NC(=O)NC2=O)C(C)CN1C (centres undefined),-7,.,.,.,0.76,0.6,-0.2,.,-29,.
COc1ccc2c(ccn2S(=O)(=O)c2ccccc2)c1,.,4,3,0.9,0.71,1.5,0.2,i,-4,-2.6
COc1ccc(OC)c2c1cc(C(=O)N[C@@H](Cc1ccccc1)C(=O)O)n2C,-4,-3,0,2.2,0.67,-2.5,-0.2,i,-3,-1.2
O=C(N/N=C/c1cc(Br)c(O)c(Br)c1O)c1cccnc1,34,-20*,-9.4*,2.5*,.,.,-1.8,i,2,-1.3
CCOC(=O)c1ccc(NC(=O)c2ccc(NC(=O)C3CCCO3)cc2)cc1 (centres undefined),.,-7,0,-2.0,0.63,0.1,1.5,i,3,0.9
CCc1cccc(NC(=O)CN(c2ccc(OC)cc2)S(=O)(=O)c2c(C)n[nH]c2C)c1,2,.,.,.,0.73,1.9,0.4,.,5,.
COc1cccc(N2CCN(CC(=O)Nc3nc(C)c(C(=O)N(C)C)s3)CC2)c1,-6,-1,1,-1.6,0.68,1.3,0.9,i,9,1.3
O=C(CCC(=O)Nc1cccnc1)Nc1cccnc1,-2,12,12,0.5,0.68,3.0,1.1,i,-1,-4.7
CCC(C)NS(=O)(=O)c1ccc(OCC(=O)NCc2ccc(OC)cc2)cc1 (centres undefined),-2,14,15,-0.8,0.69,1.3,0.5,i,12,1.1
CCOc1ccc(NC(=O)CCNC(=O)Cn2cnc3ccccc3c2=O)cc1,.,3,1,0.7,0.63,0.9,-0.7,i,-14,-3.8
CC(C)[C@@H](C(=O)NC1CCN(Cc2ccccc2)CC1)N1C(=O)N2CCc3c([nH]c4ccccc34)[C@@]2(C)C1=O,1,.,.,.,0.7,1.9,0.8,i,?,27*
O=C(Nc1ccc(N2CCOCC2)c(Cl)c1)c1cccc(F)c1,5,.,.,.,0.76,3.3,-4.0,.,.,.
Cc1cc2ncn(C3CC(=O)N(Cc4ccccc4)C3=O)c2cc1C (centres undefined),.,.,.,.,0.71,2.1,0.4,.,-12,.
O=c1ccnc(Nc2ccc3c(c2)OCCO3)[nH]1,.,3,6,-1.2,0.64,3.1,-0.6,i,-15,-0.8
COc1ccc(Nc2ncnc3c2cnn3-c2ccccc2)cc1OC,-6,7,19,1.5,0.7,-32,-0.5,i,-19,3.8
COc1ccc(CNS(=O)(=O)c2ccc3c(c2)NC(=O)CS3)cc1,-3,-2,-3,-0.9,0.71,-0.1,-0.1,i,-25,-3.7
CC(=O)c1sc(NC(=O)CCOc2ccccc2)nc1C,0,.,.,.,0.73,2.0,-0.8,.,25,.

# Screening data as filed in PubChem.
